Assay outcomes deposited in PubChem BioAssay by PCMD.
Calb biofilm kill – mixture kills Candida albicans biofilm cells; inhibition, % at 7.6 µM; actives 0.02% (n = 120,000); C. albicans biofilm persisters + clotrimazole, fluorescence viability; primary screen in compound mixtures of four per well;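 active means inhibition above 30.3% in the primary screen of four-compound pools, then above 30% when the compound was retested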;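 further: compounds exposed to preformed 24 h biofilms for 48 h; the number belongs to the whole pool; some results filed as inactive read as strong as hits; inactives centre near 12; 0% = biofilm with clotrimazole alone and 100% = kill control; retested singly at about 60 µM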
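System: C. albicans CAF4-2 wild-type biofilms; Medium: RPMI/MOPS medium, pH 7.0; Reagent: Clotrimazole, 50 µg/mL; Times: biofilm formation 24 h, compound exposure 48 h, 37 °C; Detection: 2-h Alamar Blue fluorescence, 535/590 nm excitation/emission; Evaluation: percent inhibition of biofilm viability.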
Active calls of the source: *.

SMILES | Calb biofilm kill
O=C(NCc1ccc2c(c1)OCO2)c1ccc(CSCc2ccccc2Cl)o1 | 12.1
CCN(CC)S(=O)(=O)c1ccc2c(c1)nc(CCC(=O)OCC(=O)Nc1c(F)cccc1F)n2C | 17.2
CCOC(=O)CNC(=S)N1CCn2c(nc3ccccc32)C1 | 14.0
O=c1c2cn[nH]c2[nH]c(=S)n1-c1ccccc1 | 12.2
NC(=O)[C@@H]1[C@@H]2C(=O)N(c3ccc(F)cc3)C(=O)[C@@H]2[C@H]2C=Cc3ccccc3N21 | 13.6
O=C(c1cccc(Cl)c1)C1CCCN(Cc2ccc(N3CCNC3=O)cc2)C1 (configuration not stated) | 13.3
C#CCOCCOCCOCCNc1nc(N2CCN(C(=O)[C@H]([C@@H](C)CC)n3cc([C@@H](N)Cc4ccc(O)cc4)nn3)CC2)nc(N2CCN(C(=O)[C@H](Cc3cc4ccccc4[nH]3)n3cc([C@@H](N)C(C)CC)nn3)CC2)n1 (some centres not stated) | 16.6
O=C(O)COC(=O)C1C(c2ccccc2)C(C(=O)O)C1c1ccccc1 (configuration not stated) | 2.2
C/C(=N\NC(=O)C(N)=O)c1ccc(NC(=O)c2cccs2)cc1 | 10.8
CC1(C)CC(=O)C2=C(C1)OC1=C(C(=O)CC(C)(C)C1)C2c1cc([N+](=O)[O-])cc([N+](=O)[O-])c1O | 29.4
COc1ccc(NC(=O)C(NC(=O)c2ccc(=O)[nH]c2)c2ccc(C)cc2)cc1 (configuration not stated) | 22.1
O=C(O)CNc1ccccc1C(=O)O | 24.0
CC(C)Sc1nc2ncnc(N)c2[nH]1 | 17.8
CCOc1ccc(N2C(=O)CN(c3cccc4ccccc34)C2=S)cc1 | 18.6
Cc1[nH]c(N=Nc2ccccc2)nc1N=Nc1ccccc1 | 12.3
CNC(=O)c1cc(C(=O)c2ccc(C(F)(F)F)cc2F)c[nH]1 | 7.0
CCN(CC)C(=S)NC(=O)C12CC3CC(CC(C3)C1)C2 | 9.9
Cc1cnc(C(=O)OCC(=O)Nc2ccc(C)c(S(=O)(=O)N(C)C)c2)cn1 | 14.6
CCN(c1ccc(NC(=O)COC(=O)c2ccc(C)s2)cc1)C(C)C | 9.5
CCOC(=O)CCCc1ccc(/C(C)=N/NC(N)=S)cc1 | 8.5
Cc1cccc2c(CC(=O)O)noc12 | 2.5
COc1cc2c(c(OC)c1OC)-c1c(cc3c(c1O)OCO3)C[C@@H](C)[C@@H](C)C2 | 16.3
COc1ccccc1CCc1nnc(CCC(=O)NC(C)Cc2cccs2)o1 (configuration not stated) | -2.3
COc1cc(OC)cc(C(=O)NCCCN2CCN(CCCNC(=O)c3cc(OC)cc(OC)c3)CC2)c1 | -6.5
CCOc1cc(C2C3=C(CC(C)(C)CC3=O)Nc3n[nH]c(C)c32)ccc1O (configuration not stated) | 13.9
CCN(CC)P(=O)(Nc1ccc(SC(F)F)cc1)c1ccc(N(C)C)cc1NC(=O)c1ccco1 (configuration not stated) | -0.9
COc1ccc(-c2cc(-c3ccc(O)cc3)nc(N)c2C#N)cc1OC | -7.5
COc1ccc(C(C)(C)C)cc1NC(=O)CNc1cccc2ccccc12 | 4.1
C=CCNC(=S)/C(=C(\[O-])c1ccc(Cl)cc1)[n+]1ccccc1 | 2.9
CCOc1ccccc1/C=C(/NC(=O)c1ccccc1)C(=O)NC(C)c1ccccc1 (configuration not stated) | 10.1
Fc1cccc(Cc2noc(CN3CCOCC3)n2)c1 | 4.9
CSc1nc(C)cc(SCC(=O)N/N=C/c2ccccc2)n1 | 14.7
COC(=O)Cc1ccc(NC(=S)N2CCCC(CO)C2)cc1 (configuration not stated) | 15.8
Cc1ccc(CNC(=O)CCCCn2c(=O)[nH]c3ccsc3c2=O)cc1 | 4.4
N#Cc1c(C(F)(F)F)cc(-c2cccs2)nc1N1CCCCC1 | 24.6
CCOC(=O)C(NC(=O)CC(C)C)(Nc1sc2c(c1C(N)=O)CCCC2)C(F)(F)F (configuration not stated) | 17.8
COCCCNC(=O)Cc1coc2ccc3ccccc3c12 | 19.7
COC(=O)CSCc1nc2ccccc2[nH]c1=O | 8.8
Cc1ccc(S(=O)(=O)CC(O)COc2ccc(F)cc2Cl)cc1 (configuration not stated) | -0.8
Cc1cccc2sc(N(CCCN(C)C)C(=O)CN3C(=O)c4ccccc4C3=O)nc12 | 17.4
COc1ccc(C(=O)c2sc3nc(-c4ccc(OC)cc4)ccc3c2N)cc1 | 3.7
O=C(O)CSC(C(=O)Nc1ccc(Br)cc1)c1ccc(Cl)cc1 (configuration not stated) | 7.3
O=C(NC(=S)Nc1ccccc1N1CCOCC1)c1ccco1 | 19.2
CCCC1CC(C#N)N(N(C)C)C1=C(C#N)C#N (configuration not stated) | 16.9
CC1=C(C(=O)Nc2ccccn2)C(c2cn(C)nc2C)C2=C(CCCC2=O)N1 (configuration not stated) | 15.8
CCS(=O)(=O)c1ccc(O)c(NC(=O)/C=C/c2ccc(Cl)cc2)c1 | 5.4
Cc1cc(C)cc(N(C(=O)c2snc(C(N)=O)c2N)C(C(=O)NCC2CCCO2)c2cccs2)c1 (configuration not stated) | 18.5
CCOC(=O)c1c(NC(=O)CSc2nnc(-c3cccnc3)o2)sc2c1CCC2 | 11.2
C/C(=N\NC(=O)c1ccncc1)c1ccc(N(C)C)cc1 | -0.5
CCOc1ccc(NC2OC(C)C(O)C(O)C2O)c([N+](=O)[O-])c1 (configuration not stated) | 8.0
O=C1NC(=Nc2ccccc2)c2ccc([N+](=O)[O-])cc21 | 16.0
CCC(=O)Nc1cccc(NC(=S)NC(=O)c2cc3ccccc3o2)c1 | 3.2
NN1C(=O)NC(c2ccccc2)(c2ccccc2)C1=O | 12.1
COc1ccc(NC(=O)NCc2ccccc2F)cc1OC | 2.4
CCOc1ccc(NC(=O)c2cc3ccccc3cc2O)cc1 | 22.0
COc1ccc([N+](=O)[O-])cc1NC(=O)c1ccc(N2C(=O)CCC2=O)cc1 | 18.5
COCCN(Cc1ccccc1)C(=S)Nc1ccc(OC(F)F)cc1 | 0.6
CCOC(=O)C1(CCCc2ccccc2)CCN(C(=O)c2ocnc2C)CC1 | 11.8
O=C(CCCCCn1c(=S)[nH]c2ccc(N3CCOCC3)cc2c1=O)NCc1ccc(Cl)cc1 | 17.7
c1cnc2c(Oc3ncnc4sccc34)cccc2c1 | 12.4

Ordered by count of non-hydrogen atoms (rising): 4 of the compounds above.
SMILES | Calb biofilm kill
Cc1cccc2c(CC(=O)O)noc12 | 2.5
Fc1cccc(Cc2noc(CN3CCOCC3)n2)c1 | 4.9
CCOc1ccc(NC2OC(C)C(O)C(O)C2O)c([N+](=O)[O-])c1 (configuration not stated) | 8.0
COc1cc2c(c(OC)c1OC)-c1c(cc3c(c1O)OCO3)C[C@@H](C)[C@@H](C)C2 | 16.3

3 entries picked at random from the list so far:
SMILES | Calb biofilm kill
CCOc1ccccc1/C=C(/NC(=O)c1ccccc1)C(=O)NC(C)c1ccccc1 (configuration not stated) | 10.1
CCN(CC)C(=S)NC(=O)C12CC3CC(CC(C3)C1)C2 | 9.9
COc1ccc(NC(=O)NCc2ccccc2F)cc1OC | 2.4

The list continues:
SMILES | Calb biofilm kill
Cc1cc(-c2nc(C)c(-c3nnc(SCC(=O)Nc4cc(Cl)cc(Cl)c4)n3C)s2)no1 | 12.3
COc1cccc(NC(=S)Nc2cc(C)cc(C)n2)c1 | 18.8
COc1ccc(-c2ccc(=O)n(Cc3cccc([N+](=O)[O-])c3)n2)cc1 | 13.8
Cc1cc(C(=O)NCCc2ccc(Cl)cc2)no1 | -0.7
Cc1c(Br)c(=O)oc2c(C)c(O)ccc12 | 8.6
C[C@H](NC(=O)c1ccco1)C(=O)Nc1ccc2c(c1)OCO2 | -8.2
O=C1CN(C(=O)COC(=O)CNS(=O)(=O)/C=C/c2ccccc2)c2ccccc2N1 | 31.3
COc1cccc(/C=C/C(=O)OCC(=O)Nc2cc(S(=O)(=O)N3CCOCC3)ccc2C)c1 | 14.7
CCN1CCN(C(=O)CCc2nc3ccccc3n2-c2ccccc2)CC1 | 11.4
CC1Nc2ccccc2C(=O)N1NS(C)(=O)=O (configuration not stated) | 11.6
Cc1cc(NC(=O)CCC(=O)N(Cc2ccco2)C(C(=O)NC2CCCC2)c2ccccc2C)no1 (configuration not stated) | 3.9
CCOC(=O)C1=C(N)Oc2c(oc(CO)cc2=O)C1c1ccc(Cl)cc1 (configuration not stated) | 18.1

Two of the compounds above, tab-delimited:
structure	Calb biofilm kill
Fc1cccc(Cc2noc(CN3CCOCC3)n2)c1	4.9
CSc1nc(C)cc(SCC(=O)N/N=C/c2ccccc2)n1	14.7

(further entries)
SMILES | Calb biofilm kill
CCCNC(=O)c1ccccc1NC(=O)c1ccccc1N(C)S(=O)(=O)c1ccccc1 | 13.7
COc1ccc(OCCSc2nnc(-c3cccnc3)n2N)cc1 | 8.6
CCc1nnc(NC(=O)C2CCCO2)s1 (configuration not stated) | -14.3
CCCCC1=CC2=C(c3ccco3)C(=O)C(C)(OC(=O)c3ccc(OC)cc3)C(=O)C2=CN1CCCOC(C)C (configuration not stated) | -3.6
O=C(CSc1ccccc1Cl)NC1CCCc2ccccc21 (configuration not stated) | 14.0
C/C(Cn1nnc([N+](=O)[O-])n1)=N\NC(=O)c1ccccc1O | 24.0
CC1(C)CC(=O)c2cc(C(=O)NC3CCSC3=O)c(=O)n(-c3ccc(Cl)cc3)c2C1 (configuration not stated) | 11.1
C[N+](C)(C)CC/C=C1/c2ccccc2CSc2ccccc21 | 13.5
COc1ccc(C(=O)Nc2ccc(N3CCN(C)CC3)cc2)cc1[N+](=O)[O-] | 13.4
Cc1cc(C)c2nc(N3CCC(C(=O)NCCCN4CC(C)CC(C)C4)CC3)sc2c1 (configuration not stated) | 11.2
COc1cccc2cc(C(=O)Nc3ccc(F)cc3)c(=Nc3ccc(C(=O)O)cc3)oc12 | 15.3
Cc1cc(NC(=O)c2ccccc2-c2ccccc2)ccc1Br | 4.2
Cc1cccc2[nH]c(CN(C)C(=O)CC3C(=O)NCCN3CC(C)(C)C)nc12 (configuration not stated) | 7.1
CCn1c(C)[n+](CC)c2ccc(C(=O)N(C)c3ccccc3)cc21 | 11.1
COc1ccc(Cn2c(O)c(C=Nc3ccc(OC)cc3)c3ccccc3c2=O)cc1 | 10.5
Cc1cccc(C)c1NC(=O)CN1N=NC2C(=O)N(c3cccc(Cl)c3)C(=O)C21 (configuration not stated) | -3.2
O=C(CSC1=NCCS1)c1ccc(Cl)cc1 | 3.8
COC(=O)Cc1ccc(NC(=S)NCCSc2ccc(Cl)cc2)cc1 | 19.7
O=C(NC1CCCCC1)C(c1ccco1)N(CCc1ccccc1)C(=O)C(F)(F)F (configuration not stated) | 21.1
Cc1c(N2C(=O)CSC2c2ccc(F)cc2)c(=O)n(-c2ccccc2)n1C (configuration not stated) | 11.4
O=C(O)/C=C/S(=O)(=O)c1ccc2ccccc2c1 | 20.0
COc1cc(NC(=S)NC(=O)c2cccs2)ccc1NC(=O)C(C)C | 8.5
CCCCn1c(SCC(=O)N(C)C)nnc1-c1ccncc1 | 10.4
CCCCN1C(=O)C(=O)NC[C@@H]1C(C)O (some centres not stated) | -1.6
Cc1cc(Cl)cc(Cl)c1CNc1c([N+](=O)[O-])c(=O)oc2ccccc12 | 6.1
CCNC(=O)c1ccc(C23CC4CC(CC(C4)C2)C3)o1 | 5.8
C=C1CCN(C(C)C(=O)OC)S(=O)(=O)c2ccccc21 (configuration not stated) | 15.8
CCn1c2ccc(C)cc2c2nnc(NN)nc21 | 13.9
Cc1ccc(SCCC(=O)Nc2cc(C)on2)cc1 | 10.8
COc1ccc(CCNc2oc(-c3ccc(OC)c(OC)c3)nc2P(=O)(OC)OC)cc1OC | 7.0
Cc1ccc(NC(=O)c2cccc(NC(=O)CCC(=O)O)c2)cc1C | 13.7
CN(Cc1cnn(C)c1)C(=O)CC1C(=O)NCCN1Cc1cccc(Oc2ccccc2)c1 (configuration not stated) | 4.3
Cn1cnnc1SC1c2cccc3cccc(c23)C1NS(=O)(=O)c1ccccc1 (configuration not stated) | 5.8
O=C(N/N=C/c1ccc(N2CCOCC2)s1)c1ccccc1Br | 15.0
CN(Cc1ccccc1)C(=O)CN1CCN(C(c2ccccc2)c2ccccc2)CC1 | 2.9
C#CCOCCOCCOCCNc1nc(N2CCN(C(=O)C([C@@H](C)CC)n3cc(C(N)CO)nn3)CC2)nc(N2CCN(C(=O)[C@H](CCC(=O)O)n3cc(C(N)Cc4ccc(O)cc4)nn3)CC2)n1 (some centres not stated) | 7.4
Cc1ccc2[nH]cc(C(=O)CCl)c2c1 | 19.2
CCCCCCC(=O)NNC(=O)c1c(O)c2ccccc2n(CCC)c1=O | -6.0
Cc1ccc(N(CC2CO2)S(=O)(=O)c2ccc(C)cc2)cc1 (configuration not stated) | 49.2
Cn1c(=O)c(Sc2ccc(Cl)cc2)c(O)c2ccccc21 | -0.5
COc1ccc(CCn2c(NN=C3CCCCC3)nc3c2c(=O)[nH]c(=O)n3C)cc1 | 17.3
O=C(C1=C[C@H](c2coc3ccccc3c2=O)C[C@H](OCCCCO)O1)N1CCOCC1 | 19.4
CC(=O)N1CCC(C(=O)Nc2cc(C)cc(C)c2)CC1 | 15.3
CC(=O)c1ccc(S(=O)(=O)N2CCC(NC(=O)Nc3cccc(F)c3)CC2)cc1 | 6.6
C=C(C)c1cccc(C(C)(C)NC(=O)NCc2ccncc2)c1 | 13.1
CC(C)(C)C1CCc2c(sc(NC(=O)CSc3nnc(-c4ccccc4)o3)c2C#N)C1 (configuration not stated) | 21.2
COc1cc(/C=C(\C#N)C(=O)NC(C)C)cc(Cl)c1O | 16.8

This is a subset; count on the stated rates, not on these rows.
